Screening data deposited in PubChem by several laboratories.
GALR2 agonist: GALR2 receptor agonists, primary screen, cell-based | Galanin receptor type 2 (Homo sapiens), O43603 | GALR2-expressing cells, agonist activation read-out | activation, %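 (tested at 5 µM)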 | 140,000 tested, 0.48% active;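 active = above mean plus 3 SD of all compounds, about 5% in these data, not always enough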;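 also: 0% = vehicle buffer wells and 100% = reference agonist at full effect; tested in CHO reporter cells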
Target sequence (O43603 whole entry, looked up): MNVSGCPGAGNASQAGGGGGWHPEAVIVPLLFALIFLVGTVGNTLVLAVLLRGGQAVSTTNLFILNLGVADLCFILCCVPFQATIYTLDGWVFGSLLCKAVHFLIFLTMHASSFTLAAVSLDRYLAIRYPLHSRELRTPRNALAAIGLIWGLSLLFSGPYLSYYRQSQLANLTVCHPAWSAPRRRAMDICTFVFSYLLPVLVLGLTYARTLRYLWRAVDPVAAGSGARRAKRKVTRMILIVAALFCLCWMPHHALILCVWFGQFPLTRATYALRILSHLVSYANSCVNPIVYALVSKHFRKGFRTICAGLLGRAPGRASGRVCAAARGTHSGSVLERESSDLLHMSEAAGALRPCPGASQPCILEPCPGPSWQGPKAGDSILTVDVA
Insulin prom inh: inhibitors of insulin promoter-driven GFP, primary screen, imaging, TRM-6 cells (human fetal islet line), eGFP reporter, cell count | inhibition, % at 2 µM | reporter expression induced with tamoxifen | 130,000 tested, 0.9% active;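 active = inhibition above the mean plus 3 SD, with well images judged a real hit on visual review, cut at about 60% in these data, passing the limit was not always enough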
RGS16-Gao: modulators of RGS16 binding to Galphao, primary screen, biochemical, human proteins, multiplexed bead flow cytometry | bead-based flow cytometry RGS16-Galphao binding, fluorescence; actives lie on both sides | 220,000 tested, 0.38% active | binding response (% of control), % at 10 µM;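 active = below 25% or above 175%, edge rows of some plates excepted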;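 also: Galphao activated by GDP with aluminum fluoride before binding; 100% = wells without compound and 0% = beads without RGS; some results beyond the cut were filed as inactive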
Target sequence (O15492 whole entry, looked up): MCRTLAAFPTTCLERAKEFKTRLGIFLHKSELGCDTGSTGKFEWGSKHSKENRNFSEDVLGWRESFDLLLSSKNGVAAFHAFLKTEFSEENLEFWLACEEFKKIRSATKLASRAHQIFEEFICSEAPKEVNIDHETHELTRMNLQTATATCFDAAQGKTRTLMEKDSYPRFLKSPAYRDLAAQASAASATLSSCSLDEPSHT
Target sequence (P09471 whole entry, looked up): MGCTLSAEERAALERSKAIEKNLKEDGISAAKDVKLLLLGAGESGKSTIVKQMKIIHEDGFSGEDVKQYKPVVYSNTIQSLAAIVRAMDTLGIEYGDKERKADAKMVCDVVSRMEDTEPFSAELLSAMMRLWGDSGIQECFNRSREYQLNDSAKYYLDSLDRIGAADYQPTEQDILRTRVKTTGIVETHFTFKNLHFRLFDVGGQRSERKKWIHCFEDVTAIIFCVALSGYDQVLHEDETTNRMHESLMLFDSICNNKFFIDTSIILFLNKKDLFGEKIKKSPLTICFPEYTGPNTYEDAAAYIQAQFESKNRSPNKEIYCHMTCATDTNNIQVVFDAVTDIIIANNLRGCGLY
HSV replic up: enhancers of HSV replication in host cells, fold increase, host cell viability. maximum fold increase. AID 1956, 2009. HSV replication augmentation in cells. 220,000 tested, 0.005% active;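 active = peak rise of 1.5-fold or more in the series; tested in PC3 cells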;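 also: first round at 10 µM; read as green reporter fluorescence; hits show the peak of a series up to 25 µM; 1 = signal of infected wells without compound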
PKD1 kinase inh: inhibitors of human PKD1 kinase, biochemical, fluorescence polarization; 200,000 tested, 0.056% active; AID 797, 2007; Serine/threonine-protein kinase D1 (Homo sapiens), Q15139; PKD1 kinase fluorescence polarization assay; inhibition, %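 (about 10 µM by stock and volumes)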;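 active = inhibition of 50% or more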;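 also: controls were vehicle for no effect and a reference inhibitor for full effect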
Insulin prom inh cell count: second read-out of Insulin prom inh, no call of its own (marks repeat the call); normalized cell count, %; measured here: cell count, toxicity; reference of the scale not given here;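 cells exposed to compound for 48 h; stained nuclei by imaging scaled within each plate; lower means fewer cells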
HSV replic up primary fold: recorded beside HSV replic up, whose call it bears; fold increase; compound at 10 µM; measured here: primary screen fold increase 10 uM; tested in PC3 cells;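 GFP signal in the first replicate; 1 = infected wells without compound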
Starred values were filed as active, the others as inactive; i = inactive; x = not tested or not shown.

SMILES	GALR2 agonist	Insulin prom inh	Insulin prom inh cell count	RGS16-Gao	HSV replic up	HSV replic up primary fold	PKD1 kinase inh
CCOC(=O)c1nn(-c2ccccc2)c2nc(-c3ccc(OC)cc3)c(C#N)c(=O)n12	0.1	-7	108	96	i	0.78	3
Cc1cc(NC(=O)c2cc(C)on2)no1	-0.9	-38	128	84	i	0.89	1
O=C1Nc2ccc(F)cc2C12Nc1ccccc1-c1nnc(SCc3ccccc3F)nc1O2 (configuration not stated)	-1.8	x	x	109	i	0.94	-2
O=C(O)c1ccc(CN(c2ccccn2)S(=O)(=O)c2ccccc2)cc1	-1.7	x	x	102	i	0.63	-11
COc1ccccc1CN1C[C@@H]2C[C@@H](c3ccc(Cl)cc3)N3CCC[C@@]23C1=O	x	x	x	104	i	1.1	-2
CC1=CC(C)(C)N(C(=O)CNC2CCCC2)c2cc(C)ccc21	x	-27	76	111	i	0.95	2
CCCCc1c(O)n2c(nc3ccccc32)[nH]c1=O	-1.6	-45	130	102	i	1.1	1
Cc1ccc(C(=O)Nc2nc(-c3cccnc3)cs2)o1	-0.1	-31	118	100	i	0.85	3
CCCc1cc(=O)[nH]c(SCC(=O)c2ccc3c(c2)OCCO3)n1	-1.6	-30	94	98	i	0.94	-3
Cc1ccc(C(=O)c2cn(-c3ccc(F)c(Cl)c3)nn2)cc1	-4.0	21	62	110	i	0.85	-12
Nc1nc(N2CCN(C(c3ccccc3)c3ccccc3)CC2)n[nH]1	x	-37	131	91	i	0.89	-9
N#Cc1c(N)nc2c(c1N)CC(C(F)(F)F)O2 (configuration not stated)	x	x	x	100	i	1.1	-4
CCCn1c(O)c(CN2CCCCC2)c(C)c(C#N)c1=O	-1.5	-50	117	102	i	1.3	13
Cc1onc(-c2ccccc2)c1C(=O)N1CCCN(C(=O)c2c(-c3ccccc3)noc2C)CC1	0.5	3	78	106	i	0.9	-3
CCn1cc(S(=O)(=O)CC(=O)Nc2cc(C)ccc2C)c2ccccc21	-2.9	x	x	104	i	0.73	8
COCc1nnc(NS(=O)(=O)c2ccc(Br)cc2)s1	-0.3	-6	114	97	i	1.2	-4
Cc1ccc(NCc2ccccc2F)cc1	0.2	x	x	102	i	1	-7
CSc1ccc(S(=O)(=O)NCc2ccccc2)cc1	-0.3	17	113	95	i	0.73	-4
FC(F)(F)c1cc(Oc2ccccc2Cl)nc(-c2ccccn2)n1	-1.4	32	104	102	i	0.71	8
COc1ccc(CNC(=O)CS(=O)Cc2nc(-c3ccc(C)cc3)oc2C)cc1 (configuration not stated)	-1.1	x	x	104	i	0.99	-13
O=c1n(-c2cccc(Cl)c2)c(=O)n2n1CCC2	-2.5	-77	103	105	i	0.86	-4
CCOC(=O)Cc1csc(NC(=O)COc2ccc(N(C)S(=O)(=O)c3cccs3)cc2)n1	-0.5	25	119	100	i	0.94	-6
CCN(C(=S)Nc1cccnc1)c1cccc2ccccc12	x	x	x	102	i	0.97	-4
O=C(CSc1nnc(-c2ccncc2)o1)N1CCCC1	x	x	x	145	i	1.1	-4
CC(On1nnc2ccccc21)C(=O)N1CCN(Cc2ccccc2)CC1 (configuration not stated)	x	36	145	112	i	0.94	-11
CN(CC(=O)Nc1ccccc1C(=O)N1CCCC1)S(=O)(=O)c1ccc(Br)cc1	-0.9	-3	206	104	i	1.1	4
CC(C)(C)CC(=O)NC(=S)Nc1ccccc1[N+](=O)[O-]	x	x	x	101	i	0.91	2
CC(C)(C)C(=O)NC(=S)Nc1cccc(C(=O)O)c1	x	x	x	96	i	1.2	-4
CCOc1cc(N2CCOCC2)c(OCC)cc1NC(=O)c1cc(C)nc2ccccc12	x	x	x	97	i	0.88	-3
CN(CC1CCCO1)S(=O)(=O)c1ccc(C(=O)Nc2nc3cc4c(cc3s2)OCO4)cc1 (configuration not stated)	-0.4	x	x	x	x	x	-1
CCN(CC(=O)Nc1ccc(Cl)c(C(F)(F)F)c1)CC(=O)NC1CCS(=O)(=O)C1 (configuration not stated)	x	x	x	100	i	0.94	-1
CCC(C)Nc1nc(CN2CCOCC2)nc2sc3c(c12)CCC3 (configuration not stated)	-2.4	36	94	105	i	1.1	0
O=C(Oc1ccc(Cl)c2cccnc12)N1CCOCC1	-4.0	-16	102	102	i	0.89	-6
CNc1nc(Nc2ccccc2)nc(OCC(F)(F)F)n1	x	x	x	107	i	0.88	-6
O=C(Nc1ccc(Cn2cccn2)cc1)c1ccc(COc2cccc(Br)c2)cc1	-2.2	14	69	103	i	0.87	-7
CCOC(=O)CCc1nc2ccccc2[nH]c1=O	-2.1	-121	27	110	i	0.92	-3
C(=Nc1ccc(Nc2ccccc2)cc1)c1ccc2ccccc2c1	-1.2	64*	71*	101	i	0.58	-9
COc1ccc(C(C)=O)cc1COc1ncnc2ccccc12	x	-118	75	93	i	0.95	-9
O=C(c1ccco1)n1nc(-c2ccc(Cl)cc2)nc1NCc1ccco1	0.9	45	132	146	i	1	-15
O=C(O)CCN1C(=O)c2ccc(NC(=O)CSc3ccccc3)cc2C1=O	-1.8	x	x	120	i	0.99	-9
CCOc1cc2c(cc1OC)C(NC(=O)C(F)(F)F)CC2=O (configuration not stated)	0.6	x	x	100	i	0.92	-10
CC(SCc1ccccc1)C(=O)NC1CCCC1 (configuration not stated)	-1.4	-6	111	101	i	0.86	-2
CC(C)(C)n1nnnc1C(c1cccnc1)N1CCOCC1 (configuration not stated)	x	x	x	104	i	0.95	2
O=C(O)C1CCN(C(=O)NC2CCCCC2)CC1	-1.1	x	x	98	i	0.98	-9
Cc1ccc(NC(=O)CSC2=NN3CCCC(=O)N=C3S2)c(C)c1	x	x	x	119	x	x	-4
CC1CCCN(C(=O)c2ccc3c(c2NCCO)C(=O)c2ccccc2C3=O)C1 (configuration not stated)	-3.4	28	145	100	i	0.92	-6
CCc1nnc(NC(=O)c2cc(-c3ccncc3)nc3ccccc23)s1	x	x	x	91	i	0.88	x
CN(CCOC(=O)/C=C/c1ccco1)Cc1ccccc1	x	x	x	100	i	1.1	0
COC(=O)C(CO)NC(=O)C(C)NC(=O)CNC(=O)OCc1ccccc1 (configuration not stated)	x	47	81	101	i	0.98	2
CNC(=O)c1nc(C)n(-c2cc(Cl)cc(Cl)c2)n1	-1.0	19	123	99	i	0.7	-6
Following part.
SMILES	GALR2 agonist	Insulin prom inh	Insulin prom inh cell count	RGS16-Gao	HSV replic up	HSV replic up primary fold	PKD1 kinase inh
CCOC(=O)N1CCC(NC(=O)CCN2C(=O)COc3ccccc32)CC1	-0.6	19	64	98	i	0.9	-2
Cc1ccccc1CN1C(=O)Nc2ccccc2C(=O)N1C(C)(C)C	-1.1	18	104	103	i	1.1	0
O=C(CCC(=O)OCc1ccc(C(=O)Oc2ccccc2)cc1)Nc1cccc2ccccc12	-2.8	14	106	109	i	1.1	-14
O=S(=O)(NCCOc1ccc(F)cc1)c1ccc2c(c1)OCCO2	-2.2	x	x	101	i	0.97	-7
CCCOc1ccc(C(C)=O)cc1CSCCC#N	-1.2	26	133	101	i	0.95	-4
Cc1ccc(C)c(S(=O)(=O)Nc2ccc(O)c(Sc3ncn[nH]3)c2)c1	x	x	x	100	i	1.1	x
CCN1C/C(=C\c2cccc([N+](=O)[O-])c2)C(=O)/C(=C/c2cccc([N+](=O)[O-])c2)C1	-0.6	100*	0.6*	99	i	0.5	-16
Cc1cc(SCC(=O)NCCN2C(=O)CSC2=O)nc2ccccc12	-0.2	x	x	167	i	1.1	0
C=CCc1c(OC)ccc2ccc(=O)oc12	-1.1	-6	163	98	i	1	-3
O=c1oc(Nc2ccc(F)cc2)nc2ccccc12	-1.1	-18	72	103	i	1	-11
Cc1ccc(/C=N/NC(=O)C2CC(=O)N(c3ccccc3)C2)s1 (configuration not stated)	-0.1	35	122	102	i	0.91	4
Cc1cc(C)cc(NC(=O)N2CCC(C(=O)c3ccc(F)cc3)CC2)c1	x	12	108	107	i	0.98	-3
CCOc1c(Br)cc(/C=N\NC(=O)c2ccccc2)cc1OC	-1.5	-18	94	105	i	0.88	-2
CCOC(=O)N1CCN(C(=O)CSc2ccccc2)CC1	0.6	x	x	94	i	1	-1
O=C(O)c1ccc(-c2nc3ccccc3[nH]2)cc1	-0.8	x	x	64	i	0.92	-5
CC(=O)NN1C(=O)/C(=C/c2ccc(C(C)C)cc2)SC1=S	0.1	9	113	109	i	0.98	2
COc1cc([N+](=O)[O-])ccc1NC(=O)CN(C)C	-4.2	-12	104	106	i	0.88	1
N#Cc1cccn1-c1nccs1	x	55	161	111	i	0.97	6
Oc1ccccc1C1=Nc2ncnn2C(c2ccccc2)C1 (configuration not stated)	-0.6	-189	35	99	i	1	2
CN1/C(=C/c2cc[n+](C)c3ccccc23)C=Cc2ccccc21	x	-210	34	103	i	0.96	-2

Next section; the last 2 above are carried over.
SMILES	GALR2 agonist	Insulin prom inh	Insulin prom inh cell count	RGS16-Gao	HSV replic up	HSV replic up primary fold	PKD1 kinase inh
Oc1ccccc1C1=Nc2ncnn2C(c2ccccc2)C1 (configuration not stated)	-0.6	-189	35	99	i	1	2
CN1/C(=C/c2cc[n+](C)c3ccccc23)C=Cc2ccccc21	x	-210	34	103	i	0.96	-2
Cc1cc(C)c(C(=O)N2CCCC(C(=O)c3cc(F)ccc3F)C2)o1 (configuration not stated)	x	x	x	102	i	1	1
CC1CCc2c(nc3ncnn3c2Nc2ccc(OC(F)(F)F)cc2)C1 (configuration not stated)	0.1	50	138	92	i	0.98	-5
CCCC1N2CC3([N+](=O)[O-])CN1CC([N+](=O)[O-])(C2)C3(C)C (configuration not stated)	0.0	x	x	102	i	1.1	-3
COc1cccc2cc(C(=O)NC(C)C3CCCO3)c(=O)oc12 (configuration not stated)	-3.4	25	45	99	i	1	0
CCCC(=O)c1cc2c(cc1NC(=O)c1ccccc1F)OCCO2	x	x	x	100	i	0.91	-4
O=C(NCC1CCCO1)c1c(O)c2c([nH]c1=O)CCCC2 (configuration not stated)	0.7	-86	71	95	i	1	1
CCNc1c([N+](=O)[O-])ncn1C	-2.7	-54	82	98	i	0.89	-11
CNc1oc(-c2cccc3ccccc23)nc1C#N	2.0	23	107	99	i	0.96	-1
CCc1cc[n+](-c2nc3ccccc3nc2C(=C=[N-])C#N)cc1	-0.7	-9	84	103	i	0.79	-4
CC(C)P(=O)(c1cccc(C(=O)O)c1)C(C)C	-1.9	43	120	96	i	0.84	-6
CCOc1ccc(CN(C(=O)c2cc3ccccc3oc2=O)C2CC2)cc1	-1.6	-105	107	103	i	1.1	-8
COc1ccccc1/C=C1\SC(=S)N(CCC(=O)NCCCN2CCOCC2)C1=O	x	x	x	102	i	1.1	-9
COc1ccc(OC)c(CNC(=O)C2CCN(C(=O)N(C)C)CC2)c1	-0.5	x	x	100	i	1.2	-7
Cc1ccc(NC(=S)NC(NC(=O)Cc2cccc3ccccc23)C(Cl)(Cl)Cl)cc1 (configuration not stated)	-0.3	-26	40	99	i	0.83	16
COCCNC(=O)CSc1ccc(Cl)cc1	x	-71	130	101	i	0.91	0
COC(=O)c1cc2c([nH]c3ccccc32)c(C)n1	0.3	x	x	113	i	0.85	-8
CCN(CC)CCNS(=O)(=O)c1ccc(/C=C/C(=O)O)cc1	x	x	x	103	i	0.93	-6
CCOc1ccc(NC(=O)N2CCC(C(N)=O)(N3CCCCC3)CC2)cc1	-2.8	x	x	96	i	0.84	-1
NS(=O)(=O)c1ccc(S(=O)(=O)NCCc2ccccc2)cc1	-1.3	x	x	102	i	0.97	-14
CCCOc1ccc2oc(=O)c3c(c2c1)CCCN3C(=O)CN1CCCC(C(=O)OCC)C1 (configuration not stated)	-0.8	-91	54	103	i	1	8

7 compounds already listed, sorted by molar mass, largest number first:
SMILES	GALR2 agonist	Insulin prom inh	Insulin prom inh cell count	RGS16-Gao	HSV replic up	HSV replic up primary fold	PKD1 kinase inh
CCOC(=O)N1CCC(NC(=O)CCN2C(=O)COc3ccccc32)CC1	-0.6	19	64	98	i	0.9	-2
CCC(C)Nc1nc(CN2CCOCC2)nc2sc3c(c12)CCC3 (configuration not stated)	-2.4	36	94	105	i	1.1	0
Cc1ccccc1CN1C(=O)Nc2ccccc2C(=O)N1C(C)(C)C	-1.1	18	104	103	i	1.1	0
CN(CCOC(=O)/C=C/c1ccco1)Cc1ccccc1	x	x	x	100	i	1.1	0
CCCOc1ccc(C(C)=O)cc1CSCCC#N	-1.2	26	133	101	i	0.95	-4
CC(SCc1ccccc1)C(=O)NC1CCCC1 (configuration not stated)	-1.4	-6	111	101	i	0.86	-2
Cc1cc(NC(=O)c2cc(C)on2)no1	-0.9	-38	128	84	i	0.89	1
